SARS PLP yeast: qHTS of Yeast-based Assay for SARS-CoV PLP; Potency, µM (top dose mostly 32.9 µM), for the others: at the highest dose activity, positive = growth rescue; hit rate 0.19% among 330,000; AID 485353, 2010; S. cerevisiae expressing SARS-CoV PLpro, growth rescue; control for the full effect not named in the record; active means well fitted rising curve with a large enough effect; inconclusive means small, poorly fitted or top-dose-only effect; inactive means no such curve, though single readings can be large or run the other way; further: 0% is about no effect; nearly all actives have a fitted effect of over 55% in size; growth read by luminescence after 48 h
MARV entry inh: qHTS for inhibitors of binding or entry into cells for Marburg Virus; hit rate 1.8% among 300,000; Marburg virus pseudotyped entry inhibition, cell reporter; control for the full effect not named in the record; about a third of the inactives were read at about 46 µM; Potency, µM (series often up to 37.8 µM), inactives show at the highest dose activity change, negative = inhibition, hits mostly inhibitors; active = well fitted inhibition curve with a large enough effect; inconclusive = small, poorly fitted or top-dose-only effect, or effect the other way; inactive = flat fitted curve, though single readings scatter; tested in HEK293 cells; about a fifth of its hits are not listed in these tables; further: on the % scale 0 is the no-effect control and ±100 the full control effect; luciferase read-out
RE007 growth inh: qHTS Assay for Inhibitors of the HIV-1 protein Vpr; S. pombe RE007 Vpr strain, BacTiter-Glo ATP luminescence, 24 h; control for the full effect not named in the record; Potency, µM (top dose mostly 92.2 µM), inactives show at the highest dose activity change, negative = less growth; hit rate 0.21% among 360,000; AID 651644, 2012; active = well fitted falling curve with a large enough effect; inconclusive = small, poorly fitted or top-dose-only effect; inactive = no such curve, though single readings can be large or run the other way;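 further: on the % scale 0 is the no-effect control and ±100 the full control effect; nearly all actives have a fitted effect of over 50% in size; the assay follows cell death caused by Vpr and the record does not say whether a fall means rescue or toxicity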
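Fission yeast strain RE007, carrying one chromosomally integrated HIV-1 vpr copy, was seeded at OD 0.01 in PMG+AL medium with 23 nL pinned compound. After 24 h at 30 °C and 99% humidity, viability was read by BacTiter-Glo luminescence.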
LASV entry inh: qHTS for Inhibitors of binding or entry into cells for Lassa Virus; Potency, µM (top dose mostly 37.9 µM), for the others: at the highest dose activity change, negative = inhibition, usual class: inhibitors; AID 540256, 2011; hit rate 1.2% among 300,000; Lassa virus pseudotype entry inhibition, cell reporter; control for the full effect not named in the record; active means well fitted inhibition curve with a large enough effect; inconclusive means small, poorly fitted or top-dose-only effect, or effect the other way; inactive means flat fitted curve, though single readings scatter; tested in HEK293 cells; further: on the % scale 0 is the no-effect control and ±100 the full control effect; nearly all actives have a fitted effect of over 50% in size; luciferase read-out
NS1 inh: qHTS Assay for Inhibitors of Influenza NS1 Protein Function; hit rate 0.4% among 270,000; AID 2326, 2010; S. cerevisiae slowed by influenza A NS1, growth recovery by OD600; Potency, µM (series often up to 46.1 µM), inactives show top-dose activity, positive = more growth; active means well fitted rising curve with a large enough effect; inconclusive means small, poorly fitted or top-dose-only effect; inactive means no such curve, though single readings can be large or run the other way; further: nearly all actives have a fitted effect of over 50% in size
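Recovery from NS1-induced slow growth read by OD600 in budding yeast switched to galactose assay medium (pH 6.0, -URA) at 1:100 dilution. Compound 23 nl per well; the matching strain lacking NS1 serves as control.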
StopGo reporter: High Throughput Screening for Foot and Mouth Disease Virus Antivirals; human cells with a luciferase reporter of 2A StopGo recoding; control for the full effect not named in the record; Potency, µM (series often up to 57.9 µM), inactives show at the highest dose signal change, negative = less light; hit rate 1.2% among 410,000; active = well fitted falling curve with a large enough effect; inconclusive = small, poorly fitted or top-dose-only effect; inactive = no such curve, though single readings can be large or run the other way; tested in HEK293T cells; further: on the % scale 0 is the no-effect control and ±100 the full control effect; nearly all actives have a fitted effect of over 45% in size; luciferase light after 4 h
Cruzain inh noDet: qHTS Assay for Promiscuous and Specific Inhibitors of Cruzain (without detergent). AID 1476, 2009. Potency, µM, inactives show max response, negative = inhibition, usual class: inhibitors. hit rate 2.3% among 200,000. purified cruzain, Z-FR-AMC fluorescence, no detergent;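 further: plate controls were enzyme without inhibitor for no effect and buffer without enzyme for full effect; nearly all actives have a fitted effect of over 40% in size; top concentration of the series not given in the record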
Target sequence (P25779 123-467 limits assumed): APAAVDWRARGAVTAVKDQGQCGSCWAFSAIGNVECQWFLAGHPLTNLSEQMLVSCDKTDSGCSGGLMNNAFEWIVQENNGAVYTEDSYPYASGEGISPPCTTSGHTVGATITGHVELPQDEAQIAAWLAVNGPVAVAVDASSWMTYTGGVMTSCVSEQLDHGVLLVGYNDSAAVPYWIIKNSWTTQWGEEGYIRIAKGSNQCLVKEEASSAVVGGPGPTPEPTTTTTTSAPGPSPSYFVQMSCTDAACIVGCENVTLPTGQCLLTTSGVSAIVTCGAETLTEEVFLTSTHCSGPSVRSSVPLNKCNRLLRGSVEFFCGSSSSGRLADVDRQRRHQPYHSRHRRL
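Purified cruzain at 1.5 nM, pre-incubated 15 min with compound at room temperature in 100 mM sodium acetate pH 5.5, 5 mM DTT, 0.00005% Triton X-100. Reaction started with 2 uM Z-FR-AMC; AMC fluorescence increase over 60 s gives rate.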
Cruzain inh Det: qHTS Assay for Promiscuous and Specific Inhibitors of Cruzain (with detergent) | AID 1478, 2009 | purified cruzain, Z-FR-AMC fluorescence, 0.01% Triton | Cruzipain (Trypanosoma cruzi), P25779 | Potency, µM, for the others: max response, negative = inhibition, most hits filed as inhibitors | hit rate 0.43% among 200,000;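 further: plate controls were neutral wells for no effect and buffer without enzyme for full effect; nearly all actives have a fitted effect of over 40% in size; top concentration of the series not given in the record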
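In this qHTS format, compounds are incubated with 1.5 nM cruzain for 15 min at room temperature before 2 uM Z-FR-AMC is added. Release of AMC is followed at 360/450 nm, and progress is taken as the 60 s fluorescence difference.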
Numbers without * were called inactive; u = inconclusive; x = not tested or not shown; & = joins results of further samples; [ ] = another dose, or the depositor's remark. Unless noted, the call rests on the fitted dose curve; in most records, active means well fitted curve in the direction sought with a large enough effect; inconclusive means small, poorly fitted or top-dose-only effect, or another doubt; inactive means no such curve, though single readings can be large; an effect the other way counts as inactive or inconclusive. Potency means the concentration at half of the fitted maximal effect. The order is random. Share with any hit: about 4.5%.

SMILES | SARS PLP yeast | MARV entry inh | RE007 growth inh | LASV entry inh | NS1 inh | StopGo reporter | Cruzain inh noDet | Cruzain inh Det
CC(C)C[C@@H](N)c1nnc(SCC(=O)c2ccc(Cl)cc2)o1 | -2% | 2% | -13% | -3% | 19% | -16% | -7% | -12%
COCCCNC(=O)Cn1nc(N2CCN(c3ccccc3)CC2)ccc1=O | x | x | x | 17%[46.1 µM] | x | -10% | 2% | -1.2%
Cc1ccc(CN2CCCn3nc(C(=O)NCC(C)c4ccccc4)cc3C2=O)cc1 (stereo not given) | x | x | x | u | x | -9% | 4% | -1.7%
Cc1cc(C)n(S(=O)(=O)c2ccc3oc(=O)ccc3c2)n1 | -4% | -8%[46.1 µM] | -18% | 10%[46.1 µM] | 6% | 6% | x | x
COc1ccc(N2C(=O)C(Cl)=C(Nc3ccccc3OC)C2=O)cc1 | -24% | u | 9% | -1% | 13% | 24% | -3% | -6.6%
C=CCOc1ccc(/C=C/C(=O)OCC(=O)NCCc2ccccc2)cc1 | -1% | 3% | -24% | -21% | x | -3% | x | x
COC(=O)c1ccccc1S(=O)(=O)N(CCCN1CCOCC1)Cc1cccs1 | -10% | -22%[46.1 µM] | -10% | 2% | 10% | 12% | -7% | -3.2%
COc1cccc2c(=S)c(CCC(C)=O)c(C)[nH]c12 | -2% | 18% | -8% | -1% | -37% | 1% | 3% | -1.4%
Cc1cc(C)cc(OCCCC(=O)O)c1 | -5% | -22% | 3% | 9% | -51% | -13% | 13% | 2.1%
O=C(CSc1ncccc1C(=O)Oc1ccccc1Cl)Nc1ccc(C(F)(F)F)cc1Cl | x | x | x | u | x | 11% | -7% | -1.3%
Cc1sc2nc(COC(=O)c3ccc(O)cc3)[nH]c(=O)c2c1C | 0% | 11%[46.1 µM] | 1% | u | -2% | -15% | x | x
CCc1cc(CNC(=O)c2ccc(OC3CCN(C(C)=O)CC3)c(OC)c2)on1 | -1% | x | 10% | x | -17% | -6% | x | x
CC(C)SC1=NC(C)(C)C=C(/C=C/c2c(Cl)cccc2Cl)N1 | -15% | u | -16% | -17% | -109% | u | -28% | -3.5%
CC1=C(C(N)=O)C(c2ccc(C)cc2)n2nc(SCc3ccccc3)nc2N1 (stereo not given) | x | u | x | -13%[46.1 µM] | x | 15% | 20% | 0.9%
CCn1cc(Br)c(C(=O)Nc2ccc(F)c(Cl)c2)n1 | -8% | -12% | u | 10% | -53% | 38%[activator] | -5% | -4.1%
CSc1ccc(/C=N/NC(=O)CNc2cccc3ccccc23)cc1 | 6% | u | 4% | 9% | 3% | -5% | u | -0.9%
COc1ccc2nc(SCC(N)=O)[nH]c2c1 | 1% | 13% | -10% | -1% | u | -3% | -8% | 1.2%
O=C(Nc1ccc2nc(SCCOc3ccccc3)sc2c1)c1cccs1 | x | -1%[46.1 µM] | x | -9%[46.1 µM] | x | u | -2% | -4.9%
Cc1cccc(OCC(=O)NCCCNC(=O)c2cccnc2)c1 | 0% | -15%[46.1 µM] | 5% | 0%[46.1 µM] | -22% | -10% | x | x
CC(C)(C)c1ccc(S(=O)(=O)NC(Cc2ccccc2)C(=O)O)cc1 (stereo not given) | 4% | 6% | 9% | 0% | 2% | 18% | u | 0.6%
CCn1c(CNC(=O)c2ccc(Cl)cc2)nnc1SCC(=O)NC1=NCCS1 | -1% | -17%[46.1 µM] | -2% | x | 6% | 8% | x | x
O=c1[nH]c(=O)n(C2CCCCCC2)c(O)c1C=NCCCN1CCOCC1 | 1% | -5% | 2% | 1% | 2% | -23% | 0% | -0.6%
CCOC(=O)/C(=N\Nc1ccccc1)c1csc(Nc2ccc(C)cc2)n1 | 14% | -1% | -19% | -15% | 4% | x | u | 0.6%
Cc1ccc(C(=O)NCCNC(=O)CN2CCCC2)cc1 | 2% | 0% | -4% | 5% | -2% | 5% | 6% | 1.4%
CCOC(=O)N1CCN(C(=O)CSc2ncccn2)CC1 | 1% | -1% | 5% | 10% | 3% | 1% | -11% | 3.3%

Next compounds:
SMILES | SARS PLP yeast | MARV entry inh | RE007 growth inh | LASV entry inh | NS1 inh | StopGo reporter | Cruzain inh noDet | Cruzain inh Det
COc1ccc(NS(=O)(=O)c2cccc(C(=O)NNC(=O)c3ccccc3O)c2)cc1 | -3% | -22%[46.1 µM] | 7% | u | x | 12% | x | x
Cc1cccc(N2CCN(C(=O)CCNS(=O)(=O)c3ccc4c(c3)CCN4C(=O)C3CC3)CC2C)c1 (stereo not given) | x | x | x | -25%[46.1 µM] | x | 0% | u | -1.0%
Cc1cccc(NS(=O)(=O)c2ccc(NC(=O)CN(c3cc([N+](=O)[O-])ccc3C)S(C)(=O)=O)cc2)c1 | -15% | u | -5% | u | u | u | -7% | -4.0%
CC(=O)c1cnn(-c2cc(Oc3cccc(C)c3)ncn2)c1C | x | u | 3% | u | -4% | 1% | -1% | 2.7%
Cc1ccccc1OCc1nc2ccccc2c(=O)n1/N=C/c1cn[nH]c1-c1ccccc1 | 26% | 16µM* | -2% | 10µM* | 3% | u | -12% | -6.2%
CC(C)c1[nH]nc2c1C(c1ccc(OC(=O)c3ccco3)cc1)C(C#N)=C(N)O2 (stereo not given) | 8% | 4% | 9% | u | -25% | x | -12% | -12%
O=C(c1ccc2c(=O)n(C3CCCC3)c(=S)[nH]c2c1)N1CCc2ccccc21 | 9% | -16% | -4% | 7% | 1% | -5% | u | -2.9%
O=C(c1ccc(C(F)(F)F)cc1)C1CCCN(C(=O)Cn2cnnn2)C1 (stereo not given) | -1% | x | 25% | x | 4% | -4% | x | x
O=C(Nc1ccc2c(c1)oc1ccccc12)c1cccnc1 | -7% | 10%[46.1 µM] | -12% | -7% | -51% | 20% | 7% | -5.4%
Cn1c2ccc(F)cc2c2nnc(SCCN3CCCCC3)nc21 | 1% | 1%[46.1 µM] | x | -6%[46.1 µM] | 0% | -7%&-7% | 13µM* | 14µM*
COC(=O)C1CCN(C(=O)c2ccccc2NC(C)=O)CC1 | 0% | 1% | 6% | 15% | 3% | 9% | 1% | 3.5%
Cc1ccc(-c2nn(-c3ccccc3)cc2CC(=S)N2CCOCC2)cc1 | -2% | x | 2% | x | -6% | -2% | x | x
O=C(NC(=S)Nc1ccccc1N1CCCC1)c1ccc([N+](=O)[O-])cc1 | u | -4% | 1% | -24% | 9% | -7% | u | -5.5%
Cc1ccc(C(c2nnnn2CC2CCCO2)N2CCN(c3cccc(C)c3C)CC2)cc1 (stereo not given) | -6% | u | 8% | u | -62% | -29% | u | -6.2%
O=C(Oc1cccc2c(O)cccc12)c1ccccc1Cl | x | 15%[46.1 µM] | 8% | 8%[46.1 µM] | x | 16% | x | x
CN(C)CCC(O)(c1ccccc1)c1ccccc1 | 1% | u | 0% | -1% | 2% | x | 1% | 3.4%
CCOc1ccc(CCNC(=O)CSc2n[nH]c(-c3ccccc3)n2)cc1OCC | x | x | x | 0%[46.1 µM] | x | -6% | -2% | 1.6%
CCOC(=O)c1ccc(CN(Cc2ccccc2C)S(=O)(=O)c2ccc(F)c(C(=O)Nc3cccc(OC)c3)c2)cc1 | x | x | x | -5%[46.1 µM] | x | 14% | u | 1.7%
Cc1cccc(-n2c(N)cc(=O)[nH]c2=S)c1 | 5% | 1% | 0% | 6% | 1% | 11% | 4% | 1.6%
Cc1cc(C(=O)Nc2ccc(Br)cc2F)n(-c2ccccc2)n1 | -4% | -9%[46.1 µM] | -24% | u | -7% | -14% | x | x
OCCC1CN(Cc2ccccc2O)CCN1CCc1ccccc1 (stereo not given) | -1% | u | -11% | u | -4% | 0% | x | x
c1cncc(CNc2ncnc3ccc(-c4cccnc4)cc23)c1 | 5%&-6% | x | x | x | x | -9%&-23% | -1% | -2.5%
O=C(Nc1cccc(F)c1)N1CC=C(c2ccc(Cl)cc2)CC1 | -16% | -20%[46.1 µM] | u | -16% | -140% | 21% | u | -6.9%
CC(=O)c1ccc(S(=O)(=O)NCCC(=O)OCC(=O)N2CCCC2=O)cc1 | 4% | 4%[46.1 µM] | 0% | 13% | x | -10% | x | x
Cn1cnc2c1c(=O)n(Cc1cccc(Br)c1)c(=O)n2C | -2% | 6% | 21% | 5% | -6% | 1% | -4% | -2.5%

(more compounds)
SMILES | SARS PLP yeast | MARV entry inh | RE007 growth inh | LASV entry inh | NS1 inh | StopGo reporter | Cruzain inh noDet | Cruzain inh Det
CCOC(=O)c1cnc2c(Cl)cccc2c1NCCCN1CCOCC1 | 3% | x | 1% | x | -7% | 17% | x | x
CSc1cccc(NC(=S)N2CCC(c3ccccc3)C2)c1 (stereo not given) | -4% | u | -2% | u | -5% | 15% | x | x
O=C(c1c[nH]c2ccc(F)cc2c1=O)N1CCCCCC1 | 15% | 16% | 5% | 30% | -39% | 6% | -12% | -2.8%
Cc1ccccc1NC(=O)NNC(=O)c1ccc2ccccc2c1O | 2% | x | -3% | x | 4% | 4% | x | x
COc1cccc(NC(=O)CN2C(=O)CSc3ccc(S(=O)(=O)N4CCOCC4)cc32)c1 | -5% | x | 6% | x | -2% | -5% | x | x
CCOCCn1ccc2c(OCC(=O)Nc3ccc(OC)cc3OC)cccc2c1=O | x | -3% | 1% | 0% | x | -7% | x | x
CCc1nnc(NC(=O)CCc2ccc(C)o2)s1 | 2% | 5% | 4% | 6% | -5% | 0% | -3% | 0.7%
COC(=O)c1ccccc1S(=O)(=O)N1CCC(C(=O)NCC2CCCO2)CC1 (stereo not given) | -4% | 19% | 1% | -6% | x | -7% | x | x
CCOC(=O)c1cc(CC)sc1N1C(=O)CC(Sc2ncccc2C(=O)O)C1=O (stereo not given) | 0% | -4%[46.1 µM] | 3% | 8%[46.1 µM] | x | -10% | x | x
O=C(O)C(Cc1ccccc1)N1C(=O)c2c(Cl)c(Cl)c(Cl)c(Cl)c2C1=O (stereo not given) | x | u | 7% | 19% | x | 0% | x | x
COc1ccc(NC(=O)CN2C(=O)NC3(CCCCCCC3)C2=O)cc1 | 0% | 6% | 2% | -7% | x | -13% | x | x
